Menin MLL FP FL – inhibitors of human menin-MLL interaction, wild-type MLL peptide; FP activity change, % at 61.4 µM; AID 1766; Fluorescence polarization, fluorescein-MLL peptide displacement from menin; 290,000 tested, under 10 active; inconclusive = falling polarisation curve, or a change in total fluorescence; inactive = total fluorescence flat and polarisation flat or rising; no compound was filed as active; the % refers to the polarisation; negative = inhibition;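 further: % of control where 0% means no effect; inhibitors lower the polarisation; unlabelled MLL peptide was the positive control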
PINK1 modulator – modulators of PINK1 expression; PINK1 immunofluorescence, high-content cytometry, 24 h; 0.2% of 410,000 active; AID 624263; Potency, µM (top dose mostly 76.6 µM), inactives show top-dose activation (PINK1 increase), hits mostly activators; active = well fitted activation curve with a large enough effect; inconclusive = small, poorly fitted or top-dose-only effect; inactive = flat fitted curve, though single readings scatter; cell line not stated here;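 further: potency means the concentration at half of the fitted maximal effect; % of control where 0% means no effect; nearly all actives have a fitted effect of over 65% in size; a mitochondrial uncoupler was the plate control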
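Compound titrations (5 concentrations, 24 h) on a stable cell line; DMSO and CCCP controls. Endpoint: fixed-cell PINK1 immunofluorescence with mitochondrial, cell and nuclear markers, scanned by microplate cytometer.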
TRPML1 ag – human mucolipin-1 channel agonism; Q9GZU1; TRPML1-expressing cells, Ca2+ dye fluorescence, FDSS; host cell line not named in the record; reference of the full effect not given here; activation, % (concentration not given with the values); 0.12% of 410,000 active; AID 624414; in the data active = activation above about 50%; inconclusive = about 30% to 50%; inactive = below about 30%; further: 0% is about no effect; the text of the record puts the active cut at 80%
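Agonist activity was taken from a 110 s kinetic Ca2+ dye read on the FDSS after pinning compounds onto TRPML1-DL cells. The cells were seeded at 1,500/well with Tet inducer, incubated about 16 h, then dye-loaded at room temperature.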
Sfp PPTase inh – blocks B. subtilis Sfp PPTase activity; 3.5% of 310,000 active; Q9F4F7; Biochemical Sfp PPTase activity, qHTS; Potency, µM, without a hit: max response, negative = inhibition, usual class: inhibitors; AID 1490; active means well fitted inhibition curve with a large enough effect; inconclusive means small, poorly fitted or top-dose-only effect, or another doubt; inactive means no such curve, though single readings can be large or run the other way;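 further: the enzyme is Sfp with the accession as filed and its product quenches rhodamine fluorescence; potency means the concentration at half of the fitted maximal effect; 0% = enzyme reaction without inhibitor and -100% = no enzyme wells; top concentration of the series not given in the record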
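Fluorescence-quenching assay: 15 nM Sfp-PPTase preincubated 15 min at room temperature with compound, then 5 uM rhodamine-CoA and 12.5 uM BHQ-2-labelled YbbR peptide added. Fluorescence (ex 525/em 598 nm) read at start and after 30 min; difference gives rate.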
ClpP mod – qHTS Assay for Activators of ClpP. ATP-dependent Clp protease proteolytic subunit (Bacillus subtilis (strain 168)), P80244. purified B. subtilis ClpP, FRET peptide cleavage, 20 min. Potency, µM (highest dose often 57.5 µM), for the others: at the top dose activity change, negative = active. 1.9% of 340,000 active. AID 651965, 2013; active = well fitted falling curve with a large enough effect; inconclusive = small, poorly fitted or top-dose-only effect; inactive = no such curve, though single readings can be large or run the other way; further: potency means the concentration at half of the fitted maximal effect; the source files actives as falling curves though it sought activators and does not explain the sign; nearly all actives have a fitted effect of over 65% in size; many hits overshoot -100%
Target sequence (P80244 whole entry, looked up): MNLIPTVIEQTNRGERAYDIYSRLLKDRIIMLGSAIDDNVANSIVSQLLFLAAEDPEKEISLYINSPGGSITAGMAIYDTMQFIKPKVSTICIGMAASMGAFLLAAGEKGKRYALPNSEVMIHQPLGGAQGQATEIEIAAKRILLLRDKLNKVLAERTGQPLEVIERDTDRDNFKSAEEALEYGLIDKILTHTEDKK
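FRET quenching reversal measured ClpP activation: 10 microg/mL B. subtilis ClpP at pH 8 with the FRET-FV decapeptide, read at 430 nm after 320 nm excitation. The 20-min minus 0-min signal was scaled between DMSO/no-enzyme wells and ADEP (5.8 microM final).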
TRPML1 blocker – human mucolipin-1 channel inhibition; Q9GZU1; TRPML1-inducible cells, Ca2+ dye fluorescence, FDSS; active compounds read low; inhibition of EC80 agonist-evoked calcium signal; activity change, negative = inhibition, % (no concentration beside the values); 0.02% of 390,000 active; in the data active means activity change below about -50%; inconclusive means about -30% to -50%; inactive means above about -30%;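 further: stimulus is agonist 54-4 at its EC80 concentration; on the % scale 0 is the no-effect control and ±100 the full control effect; compound concentration not given in the record; the text of the record puts the active cut at -80%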
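TRPML1-DL cells, Tet-induced overnight (~16 h, 37 °C) at 1,500 cells/well, were loaded with Ca8 no-wash dye plus quencher for 45-90 min at room temperature. Compounds were pinned during FDSS kinetic reading; agonist 54-4 at EC80 (4 uM final) then added.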
TRPV1 PAM – human TRPV1 potentiation; 0.02% of 320,000 active; potentiation, % at 8.33 µM; Q8NER1; TRPV1-expressing cells, Fluo-8 calcium influx, capsaicin EC20 potentiation; host cell line not named in the record; control for the full effect not named in the record; active means potentiation above 80%; inconclusive means 30% to 80%; inactive means below 30%; further: 0% is about no effect
Target sequence (Q8NER1 whole entry, looked up): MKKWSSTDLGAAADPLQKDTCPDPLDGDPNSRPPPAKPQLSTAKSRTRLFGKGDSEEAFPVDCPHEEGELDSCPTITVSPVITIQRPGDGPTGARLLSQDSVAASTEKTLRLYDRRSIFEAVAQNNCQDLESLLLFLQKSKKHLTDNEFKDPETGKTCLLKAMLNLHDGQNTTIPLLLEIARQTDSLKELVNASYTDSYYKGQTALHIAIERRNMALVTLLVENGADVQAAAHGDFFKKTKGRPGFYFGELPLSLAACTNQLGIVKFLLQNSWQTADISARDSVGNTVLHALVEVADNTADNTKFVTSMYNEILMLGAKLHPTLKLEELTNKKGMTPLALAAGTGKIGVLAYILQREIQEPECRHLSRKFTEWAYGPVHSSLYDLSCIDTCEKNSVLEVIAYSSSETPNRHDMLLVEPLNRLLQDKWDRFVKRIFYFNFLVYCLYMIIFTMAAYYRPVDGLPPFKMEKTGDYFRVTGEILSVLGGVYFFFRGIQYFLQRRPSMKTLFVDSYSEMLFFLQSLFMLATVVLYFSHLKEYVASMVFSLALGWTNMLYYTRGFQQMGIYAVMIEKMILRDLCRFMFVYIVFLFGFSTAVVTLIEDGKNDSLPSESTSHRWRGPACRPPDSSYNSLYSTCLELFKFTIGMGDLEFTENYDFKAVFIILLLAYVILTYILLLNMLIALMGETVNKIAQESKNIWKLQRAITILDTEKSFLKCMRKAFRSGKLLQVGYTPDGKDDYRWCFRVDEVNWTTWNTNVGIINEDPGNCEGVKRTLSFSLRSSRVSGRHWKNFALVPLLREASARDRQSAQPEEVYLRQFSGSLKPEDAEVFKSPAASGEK
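Fluo-8 calcium influx in TRPV1-expressing cells, kinetic read (ex 480/em 520 nm). Compound added and read 3 min for agonist activity, followed by capsaicin at EC20 final and 2 min further read for enhancement.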
Starred values were filed as active, the others as inactive; u = inconclusive; x = not tested or not shown; [ ] = dose if it differs, or a comment. This is a random part of the collection; about 4.4% have a hit in one of these screens.

Every second line gives: Menin MLL FP FL | PINK1 modulator | TRPML1 ag | Sfp PPTase inh | ClpP mod | TRPML1 blocker | TRPV1 PAM
O=C(NCC(c1cccnc1)N1CCN(Cc2ccccc2)CC1)C(=O)Nc1ccc(Cl)cc1 (configuration not stated)
  x | -0.7% | 0.6 | x | 0.4% | 2 | x
C/C(=N\NC(=O)c1cc2ccccc2cc1O)c1ccc(C)o1
  x | 1.2% | -0.1 | -9% | -1.3% | -2 | -13
O=C1CN(C(=O)c2ccc(Cl)c(S(=O)(=O)N3CCc4ccccc43)c2)c2ccccc2N1
  7.4 | 2.5% | 1.5 | 1% | x | 16 | -2
Cc1ccc(N/C=C/C(=O)c2cccs2)cc1C
  15 | -2.4% | 0.1 | 50µM* | x | -16 | -10
CCOC(=O)CN1C(=O)S/C(=C/c2cccc([N+](=O)[O-])c2O)C1=O
  u | 2.2% | -0.4 | 8% | x | -1 | 10
CCN1CCN(CCn2c(=S)[nH]c3cc4c(cc3c2=O)OCO4)CC1
  0.0 | x | -0.3 | -6% | -1.0% | -9 | 0
CCOc1ccc(CN2C(=O)c3ccccc3C2C(=O)NC(C)CC)cc1OC (configuration not stated)
  3.3 | 3.3% | -0.2 | 23% | x | -8 | -4
CCOC(=O)c1sc(=NC(=O)c2ccc(C)c(C)c2)n(C)c1C
  2.0 | 0.7% | -0.3 | 19% | x | 11 | -14
CCOC(=O)N1CCc2c(sc(NCc3cccs3)c2C(=O)Nc2cc(Cl)ccc2OC)C1
  x | 4.6% | -0.1 | x | -6.7% | 2 | x
O=C(CSc1nccc(=O)[nH]1)N1N=C2/C(=C/c3ccco3)CCCC2C1c1ccco1 (configuration not stated)
  1.5 | -0.2% | 0.2 | 10µM* | x | -4 | 5
COc1ccc(/C=C/C(=O)O)cc1COc1ccccc1C
  x | 0.6% | 0.3 | 18% | -1.3% | -2 | 19
Cc1ccc(NC(=O)CSc2sc3c(O)cc(=O)[nH]c3c2C#N)c(F)c1
  21 | 0.0% | 0.4 | u | 1.1% | -11 | -5
CC(C)OC(=O)c1cccc(NC(=O)Cn2nnc3sc4c(c3c2=O)CCCC4)c1
  x | 1.0% | 2.6 | x | -0.8% | -15 | x
CC1CN(S(=O)(=O)c2ccc(C(=O)N(CCCN(C)C)c3nc4c(Cl)cccc4s3)cc2)CC(C)O1 (configuration not stated)
  2.5 | -0.7% | 0.7 | 3% | -3.1% | -11 | -11
CC(=O)NC(CC(=O)OCc1ccc([N+](=O)[O-])cc1)c1ccccc1 (configuration not stated)
  -0.5 | -0.6% | 0.4 | 0% | x | -22 | 17
COCCNC(=O)CN1C(=O)NC(c2ccccc2)(c2ccccc2)C1=O
  6.7 | 5.3% | -1.1 | -4% | 0.9% | 1 | 0
CN1CCN(c2ccc(NC(=O)c3sc4ccccc4c3Cl)cc2)CC1
  -8.4 | 3.1% | -0.7 | 26% | -1.6% | 5 | 8
C/C(=N\NC(=O)c1cccnc1)c1cc2ccccc2o1
  3.9 | 1.1% | 2.9 | 8% | -0.2% | 11 | -5
Cc1nc2cc(NC(=O)N3c4ccccc4CC3C)ccc2n1C (configuration not stated)
  -0.9 | x | 0.4 | 7% | -0.7% | -8 | -2
CN(CC(=O)Nc1cccc(S(=O)(=O)N2CCOCC2)c1)CC(=O)Nc1ccc(Cl)c(C(F)(F)F)c1
  x | 30% | 0.1 | x | 0.8% | 19 | -6
COc1ccc(C2=NN(CCC(=O)NC3CCC(C)CC3)C(=O)CC2)cc1 (configuration not stated)
  x | -1.8% | -0.5 | 19% | -0.4% | -3 | u
COc1ccc(-n2c(=O)c3ccccc3n(CC(=O)OCc3ccccc3)c2=O)cc1OC
  2.3 | -0.1% | 0.7 | 4% | x | 9 | -2
Cc1ccc2nc(/C(C#N)=C/c3ccccc3F)[nH]c2c1
  x | 0.1% | 1.4 | x | u | -2 | x
COc1cccc(CNC(=O)C(C)n2ccc3cc(S(=O)(=O)N4CCCC4)ccc32)c1 (configuration not stated)
  -2.5 | 2.5% | -1.2 | 13% | -2.9% | 7 | -14
COc1ccc(-c2cc(C(=O)N/N=C/c3ccc4c(c3)OCO4)c3ccccc3n2)c(OC)c1
  5.0 | 1.6% | 1.1 | 9% | -22% | 1 | 2
COc1ccc2[nH]cc(S(=O)(=O)c3ccc(C)c(C)c3)c(=O)c2c1
  x | 0.7% | 1.4 | x | -4.0% | -18 | x
Cc1cc(NC(=O)Cn2cnc3sc(C)c(-c4ccccc4)c3c2=O)no1
  -0.8 | -1.0% | 0.6 | 3% | -1.8% | 18 | 12
Cc1ccc(OC(=O)CSc2nnc(-c3cccs3)o2)c(C)c1
  x | 3.0% | 4.6 | x | 34% | 12 | x
CN(C)C(=O)CCc1ccc2c3c([nH]c2c1)[C@]1(C)[C@@H](C(=O)N2CCCCC2)C[C@H](CC(=O)NCCN2CCOCC2)C(=O)N1CC3
  x | -0.1% | 0.9 | x | -5.0% | -2 | x
COC(=O)c1sc2ccccc2c1S(=O)(=O)N1CCN(c2ccc(C(C)=O)cc2)CC1
  x | 1.0% | 0.7 | x | -6.6% | 4 | x
N#Cc1c(NC(=O)C(=O)NCCCN2CCOCC2)sc2c1CCC2
  x | 0.6% | -0.6 | -18% | 1.0% | 19 | 17
COc1ccc(Cl)cc1NC(=O)C(C)N(C)Cc1ccc(C(F)(F)F)cc1 (configuration not stated)
  6.4 | 0.4% | 0.3 | 15% | -4.2% | 5 | 13
CC1CN(c2cc(=O)n(-c3cccc(Br)c3)c(=O)[nH]2)CC(C)O1 (configuration not stated)
  0.8 | 3.3% | 0.2 | -16% | 0.6% | -6 | 5
Cc1cc(NC(=O)CSc2nnc(C)n2-c2ccccc2)no1
  1.7 | 0.8% | -0.9 | 10% | -0.8% | 0 | 3
Cc1nn(CC(=O)NCCc2cccs2)c(=O)c2nn(-c3ccccc3)c(C)c12
  5.4 | -0.1% | -0.9 | 6% | -5.6% | 2 | -14
CCCCSc1nc(O)cc(=O)n1CC
  -0.6 | 1.6% | 3.4 | 18% | -0.5% | -2 | 5
COc1ccc(-c2nc3cnc(N(C)C)nc3n(CCc3ccccc3)c2=O)cc1
  -3.2 | 2.1% | x | 11% | x | x | x
CN(C)c1ccc(C=Nc2ccc(/C=C3\C=Cc4ccccc43)cc2)cc1
  x | 4.6% | -0.8 | x | -6.9% | x | x
COc1ccccc1NC(=O)c1ccc2c(c1)C(=O)N(Cc1ccco1)C2=O
  x | 2.3% | -0.3 | 12% | 1.2% | 8 | u
CN(C)c1ccc(CC(=O)N2CCCC(c3cc(C(=O)Nc4ccc(F)c(Cl)c4)no3)C2)cc1 (configuration not stated)
  x | 2.4% | -0.7 | x | -0.2% | x | x

Complete entries from above:
Profile of O=C1CN(C(=O)c2ccc(Cl)c(S(=O)(=O)N3CCc4ccccc43)c2)c2ccccc2N1 = Menin MLL FP FL: 7.4; PINK1 modulator: 2.5%; TRPML1 ag: 1.5; Sfp PPTase inh: 1%; ClpP mod: x; TRPML1 blocker: 16; TRPV1 PAM: -2
Profile of CC1CN(c2cc(=O)n(-c3cccc(Br)c3)c(=O)[nH]2)CC(C)O1 (configuration not stated) = Menin MLL FP FL: 0.8; PINK1 modulator: 3.3%; TRPML1 ag: 0.2; Sfp PPTase inh: -16%; ClpP mod: 0.6%; TRPML1 blocker: -6; TRPV1 PAM: 5

Other results
Every second line gives: Menin MLL FP FL | PINK1 modulator | TRPML1 ag | Sfp PPTase inh | ClpP mod | TRPML1 blocker | TRPV1 PAM
CCC1NC(=O)c2cc3ccccc3cc2-n2c1nc1ccc(F)cc1c2=O (configuration not stated)
  x | -0.1% | -0.3 | x | -0.8% | 0 | x
O=c1cc(-c2ccccc2Cl)oc2c(NS(=O)(=O)c3ccccc3C(F)(F)F)ccc(O)c12
  3.0 | -0.2% | 2.5 | 2% | -3.7% | 51 | 8
N#Cc1nc(-c2ccc(OCc3ccc(Cl)cc3)cc2)oc1N1CCOCC1
  1.9 | 11% | -0.5 | -1% | u | -3 | -4
O=C(CNC(=O)C1CCCCC1)NC1CCCCC1
  -2.8 | -0.4% | -0.2 | 9% | 0.6% | 3 | -7
CCOC(=O)C1=C(C)N(CCCC(=O)NCc2ccc3c(c2)OCO3)C(=O)NC1c1ccc(Br)cc1 (configuration not stated)
  -0.6 | 3.3% | -0.4 | 11% | 2.4% | -2 | 0
COc1ccc(-c2nc[nH]c2[N+](=O)[O-])cc1
  2.1 | -0.2% | 1.3 | 6% | x | 0 | 0
CCCNC(=O)c1ccc2nc(-c3ccccc3)c(-c3ccccc3)nc2c1
  1.8 | -0.5% | 2.7 | 7% | 28µM* | 13 | -7
CSc1cccc(NC(=O)C2CCCN2S(=O)(=O)c2ccc(Br)s2)c1 (configuration not stated)
  6.2 | 18%[38.3 µM] | 1.9 | 10% | 1.2% | 19 | 23
COc1cccc(NC(=O)CN(C)C(=O)Cc2c(C)nc3ccccc3c2C)c1
  x | 2.4% | 0.0 | x | -4.5% | 7 | 7
Cc1nc2ccc(S(=O)(=O)NCC(=O)Nc3ccc(F)cc3F)cc2s1
  x | 1.6% | 1.6 | x | 1.9% | -10 | x
COc1ccc(NC(=O)CCn2c(-c3ccc(F)cc3)cc(C(C)=O)c2C)c(OC)c1
  x | -0.2% | 1.2 | x | 0.9% | 8 | x
CC(=O)Nc1cccc(C(=O)NNC(=O)c2ccccc2-n2cccc2)c1
  x | 0.9% | -0.7 | x | 2.2% | 10 | 3
CC(C)C[C@H]1CN=C(Nc2ccccc2)N1CCC1CCCCC1
  -6.2 | u | 0.4 | 7% | 1.5% | -1 | 8
COc1cc(Nc2ncc3c(n2)CCN(Cc2cc(Br)cs2)C3)cc(OC)c1
  x | 0.6% | 1.9 | x | -4.7% | 18 | x
CSCCCNC(=S)Nc1cccc(S(=O)(=O)NC2=NCCC2)c1
  -4.1 | 0.0% | -1.2 | 0% | 0.3% | 2 | 9
C[C@H]1CN([C@@H](C)CO)C(=O)c2cc(NC(=O)CCN3CCOCC3)ccc2O[C@H]1CN(C)C(=O)Nc1ccc(F)cc1
  x | 0.8% | -0.2 | x | -8.1% | -6 | x
CC(C)(C)NC(=S)NCC1CC1
  -1.5 | 3.6% | 0.2 | 15% | 0.1% | -4 | -6

From PubChem BioAssay
